NPYLR7 ag: agonists of mosquito NPYLR7 receptor, primary screen, cell-based, Aedes aegypti, calcium fluorescence, mosquito biting behavior. activation, % at 10 µM. HEK293T NPYLR7/Galpha15, GCaMP6s calcium fluorescence. hit rate 0.15% among 270,000; in the data active means activation above about 40%;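 further: 0% = vehicle and 100% = reference agonist at the receptor; some compounds past the cut are filed as inactive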
NPYLR7 ag max-min: further read-out of NPYLR7 ag, marked with its call; activation, %; measured here: Max-Min RFU normalised activation; some inactives read as strong as hits;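 span of the calcium signal over five minutes; 0% = vehicle and 100% = native peptide agonist; compound fluorescence can raise it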
An asterisk follows results filed as active; & = joins results of further samples.

Sequence of screens: NPYLR7 ag max-min, NPYLR7 ag
- Cc1nn(-c2ccc(Cl)cc2)c(C)c1C(=O)O
  -6, -14
- Cc1ccc(CNC(=O)CCc2cccc(Cl)c2Cl)cn1
  1, 3
- CCN(CC)c1ccc(CNCCOC)c(OS(=O)(=O)c2ccc(NC(C)=O)cc2)c1
  -13, -6
- CC(C)Cc1cc(C(=O)N2CCOC(CCN(C)C)C2)on1 (stereo not drawn)
  -3, -2
- CCc1nc2ccc(C(=O)N(C)C(C)C)cn2c1N(C)Cc1nccs1
  -7, -7
- O=C(NC(c1ccc(F)cc1)c1ccc2ccccc2n1)C1CCN(CCc2ccccc2)CC1 (stereo not drawn)
  -5, -10
- COc1ccc(CNCC2CCCO2)cc1OS(=O)(=O)c1ccc(F)cc1 (stereo not drawn)
  24, 25
- Cc1nn(C2CCS(=O)(=O)C2)c2ncc(CNCCCn3cccn3)cc12 (stereo not drawn)
  18, -1
- CS(=O)(=O)NC1CCCN(C(=O)Nc2ccccc2N2CCc3sccc3C2)C1 (stereo not drawn)
  1, 6
- c1ccc(OCCNc2nc(NCC3CC3)nc3ccsc23)cc1
  0, 0
- Cc1ccc(-c2cc(O)c3c(c2)CN(C(=O)CN2CCNCC2)CCO3)s1
  -2, 0
- Cc1ccccc1Cn1c(C(=O)N2CCN(C/C=C/c3ccccc3)CC2)cc2ccsc21
  2, -1
- COc1ccc(C[C@@H]2C3=C(CCCC3)CCN2C(=O)c2cn[nH]n2)cc1
  1, 3
- CCCN1C(=O)NC(CC(=O)N2CCc3c(nc(C)nc3N(C)C)C2)C1=O (stereo not drawn)
  1, 2
- CCCn1c(=NC(C)=O)c(C(=O)OCC)cc2c(=O)n3cccc(C)c3nc21
  5, 1

No new results follow: 6 of the compounds above.
Sequence of screens: NPYLR7 ag max-min, NPYLR7 ag
- c1ccc(OCCNc2nc(NCC3CC3)nc3ccsc23)cc1
  0, 0
- Cc1ccc(-c2cc(O)c3c(c2)CN(C(=O)CN2CCNCC2)CCO3)s1
  -2, 0
- Cc1ccccc1Cn1c(C(=O)N2CCN(C/C=C/c3ccccc3)CC2)cc2ccsc21
  2, -1
- COc1ccc(C[C@@H]2C3=C(CCCC3)CCN2C(=O)c2cn[nH]n2)cc1
  1, 3
- CCCN1C(=O)NC(CC(=O)N2CCc3c(nc(C)nc3N(C)C)C2)C1=O (stereo not drawn)
  1, 2
- CCCn1c(=NC(C)=O)c(C(=O)OCC)cc2c(=O)n3cccc(C)c3nc21
  5, 1

(further entries)
Sequence of screens: NPYLR7 ag max-min, NPYLR7 ag
- O=C(Cn1cc(C(F)(F)F)ccc1=O)c1ccc2c(c1)CCO2
  2, 6
- CSc1cccc(CN(C(=O)c2cccnc2)C(C)C)c1
  0, 1
- Cc1ccccc1C(=O)Nc1sc2c(c1C(=O)NC(C)c1ccccc1)CCC(C)C2 (stereo not drawn)
  2, 2
- CN(CC(=O)Nc1ccc(F)cc1)C(=O)c1ccc2c(c1)NC(=O)CS2
  5, 2
- Cc1ncc(-c2ccc(OC(F)(F)F)cc2)[nH]1
  2, 1
- c1ccc(-n2ncc3c(NCc4ccccn4)ncnc32)cc1
  -4, -1
- CN1CC(=O)N2CCN(C(=O)COc3cccnc3)CC2C1=O (stereo not drawn)
  4, 7
- CCN(CC)c1ccc(-c2c(C#N)c(N)nc(OC)c2C#N)cc1
  -11, -6
- Cc1ccc(C(=O)OC(C)C(=O)NCC(C)c2ccccc2)cc1F (stereo not drawn)
  4, 10
- O=C(O)COc1ccc(-n2cc(CCO)cn2)cc1Cl
  7, 10
- O=C(NCCN1CCOCC1)c1cc2n(n1)CCN(Cc1cccc(C(F)(F)F)c1)C2=O
  27, 9
- Cc1ccc(NC(=O)C2C(=O)N(CCO)C3(C)CC2c2ccccc2O3)cc1 (stereo not drawn)
  -3, 2
- Cc1cccc(CN(CC(O)COc2ccccc2C)CC2CCCO2)c1 (stereo not drawn)
  6, -2
- O=C(c1ccc(CSc2ccc(Cl)cc2)cc1)N1C2CCC1CC(Oc1cccc(C(F)(F)F)c1)C2 (stereo not drawn)
  3, 10
- COCC(=O)Nc1cccc(-c2ccc3c(c2)OCCO3)c1
  9, 14

Next part.
Sequence of screens: NPYLR7 ag max-min, NPYLR7 ag
- COc1ccc(-c2c(C)c3ccccc3[nH]c2=O)cn1
  -1, -1
- CCC(C)N(Cc1ccc(N(CC)CC)cc1OS(=O)(=O)CC)C(=O)c1ccccc1Cl (stereo not drawn)
  7, -6
- CCOC(=O)c1ccccc1NCc1cc(=O)oc2cc(C)c(O)cc12
  1, 2
- COc1ccc(NC(C)c2nc(C(C)(C)C)no2)cn1 (stereo not drawn)
  -1, -1
- O=C1C(Br)=CC2C1C1C=CC2(Br)C12OCCO2 (stereo not drawn)
  -10, -7
- CCN(C(=O)CCc1ccccc1)C(C)c1nc2cc(Cl)ccc2c(=O)n1-c1ccc(C)cc1 (stereo not drawn)
  19, 17
- Cc1[nH]nc(C(=O)NC(C)c2ccc(NC(=O)Nc3ccccc3)cc2)c1C (stereo not drawn)
  16, 13
- COC[C@H]1C[C@H]2C[C@@H](OC)[C@H](N3CCN(c4ncccn4)CC3)[C@]2(O)CO1
  12, 0
- CN(CC(=O)Nc1c(Cl)cccc1Cl)C1CCCCC1
  -12, -9
- CC(=O)NCc1ccc(S(=O)(=O)NCc2ccc(F)c(C)c2)s1
  2, 4
- CN(CCNC(=O)Nc1cnn(C)c1)Cc1ccc(F)cc1
  5, 6
- CC(C)C1CN(C(=O)CCc2cnccn2)CCCN1Cc1ccc(F)cc1 (stereo not drawn)
  -1, 1
- COc1ccc(S(=O)(=O)c2nnn(-c3ccc(Cl)cc3)c2C)cc1
  -33, -30
- COC(=O)c1cc(NS(=O)(=O)c2c(C)c(C)cc(C)c2C)c(F)cc1F
  -6, -4
- COc1cccc(C(=O)C2CCCN(C(=O)c3cnc(C4CC4)nc3)C2)c1 (stereo not drawn)
  -4, 1

Retrieved one by one from the list above, four records:
Sequence of screens: NPYLR7 ag max-min, NPYLR7 ag
- COc1ccc(NC(C)c2nc(C(C)(C)C)no2)cn1 (stereo not drawn)
  -1, -1
- COc1ccc(S(=O)(=O)c2nnn(-c3ccc(Cl)cc3)c2C)cc1
  -33, -30
- COC(=O)c1cc(NS(=O)(=O)c2c(C)c(C)cc(C)c2C)c(F)cc1F
  -6, -4
- CC(=O)NCc1ccc(S(=O)(=O)NCc2ccc(F)c(C)c2)s1
  2, 4

(continued)
Sequence of screens: NPYLR7 ag max-min, NPYLR7 ag
- O=C1Nc2c(Br)ccc(Br)c2C1=O
  -3, -1
- O=C(Nc1nnc(-c2ccc(Cl)cc2)s1)C1CCCN1S(=O)(=O)c1ccc(F)cc1 (stereo not drawn)
  5, 13
- Cc1cccn2c(=O)nc(SCc3ccccc3Cl)nc12
  -3, 2
- CC1C(=O)N(c2ccc([N+](=O)[O-])cc2)CCN1C(=O)COc1ccc(Cl)cc1 (stereo not drawn)
  2, 0
- CN(C/C=C/c1ccccc1)Cc1cccc2ccccc12
  -3&9, 12&4
- O=C(NCCc1ccccc1)Nc1ccc2c(c1)N(S(=O)(=O)c1cccs1)CCC2
  -7, -8
- CN1CC2N(CCOCc3ccccc3)C3CCC2(CC3)OC1=O (stereo not drawn)
  33, 30
- CCCC(=O)Nc1nc2ccc(OC)cc2s1
  -11, -3
- O=C1c2ccccc2NC(/C=C/c2ccco2)N1CCCN1CCOCC1 (stereo not drawn)
  -4, -1
- O=S(=O)(c1ccc(Br)cc1)N1CCN(c2nc3ccccc3nc2-c2ccccc2)CC1
  2, 5
- CCOc1ccc(CNc2nn[nH]n2)cc1OCC
  0, 0
- O=c1c2c3c(sc2ncn1N=Cc1ccco1)CCCC3
  -2, 0
- O=C(NN=Cc1ccc(Br)cc1)c1n[nH]c2c1CCCC2
  -3, -2
- O=[N+]([O-])C1=Cc2c(ccc3ccccc23)OC1c1ccc2c(c1)OCO2 (stereo not drawn)
  -1, 3
- CN(C(=O)Cn1nc(-c2cccs2)c2sc(N3CCOCC3)nc2c1=O)c1ccccc1
  -8, -3

The list goes on.
Sequence of screens: NPYLR7 ag max-min, NPYLR7 ag
- Cc1ccc(-c2n[nH]c(=S)o2)cc1
  5&-1, -1&2
- CCOC(=O)CCC(=O)Nn1cnc2c(cnn2-c2ccc(C)c(C)c2)c1=O
  -1, 5
- C=CCS(=O)(=O)NCC1CCN(Cc2ccc(C)c(C)c2)C1 (stereo not drawn)
  6, 5
- Cn1nc(C(=O)Nc2ccc3nc(N4CCCC4)sc3c2)ccc1=O
  -1, -2
- CC(C)=CC(=O)NCc1cccnc1Oc1ccc(C)nc1
  -2, -2
- COC(=O)c1scc(-c2ccc(C)cc2)c1S(=O)(=O)N1CCN(c2ccccc2)CC1
  11, 13
- CC1(C)Oc2ccc3ccc(=O)oc3c2C(N2CCOCC2)C1O (stereo not drawn)
  2, 3
- COCC1CCN(c2nncc(-c3ccc4c(c3)OCO4)n2)C1 (stereo not drawn)
  -8, -6
- Cn1nccc1C(=O)N1CCC(n2nccc2NC(=O)CCOc2ccccc2)CC1
  1, 4
- CCCCC(=O)Nc1nnc(SCC(=O)Nc2ccc(OCC)cc2)s1
  3, 1
- Cc1[nH]n(-c2ccccc2)c(=O)c1N=Nc1ccc(C#N)cc1
  -7, -2
- Cn1nc(C(=O)Nc2ccc(-c3ccc(N4CCCC4)nn3)cc2)ccc1=O
  -3, -2
- O=S(=O)(c1ccc(Br)s1)N1CCCC(C(F)(F)F)C1 (stereo not drawn)
  4, 0
- O=c1c(-c2ccccc2)[n+]([O-])c2ccccc2n1OCc1cccc(F)c1
  5, 5
- COc1cccc(C2CN(C(=O)CC(C)(C)C)CC2C(=O)NCc2ccccn2)c1OC (stereo not drawn)
  1, 5

Later entries:
Sequence of screens: NPYLR7 ag max-min, NPYLR7 ag
- CCOC(=O)c1ccc(NC(=O)NNC(=O)c2ccc(=O)n(Cc3ccc(C)cc3)c2)cc1
  -1, 1
- CCCCc1ccc(C(=O)N(CC(=O)N2CC(=O)N(c3ccc(OC)cc3)C2)CC(C)C)cc1
  1, -7
- O=S(=O)(c1ccc(F)cc1)N1CCN(C(c2ccccc2)c2ccc(Cl)cc2)CC1 (stereo not drawn)
  1, 4
- COc1ccc(-c2ccc(-c3nc4ccccc4c(=O)o3)cc2)cc1
  1, -6
- C[C@H]1[C@H]2CCC3C4CC=C5C[C@@H](N(C)C)CC[C@]5(C)C4CC[C@@]32CN1C (stereo partly drawn)
  7, 12
- CCCOc1cccc(C(=O)NC2CS(=O)(=O)c3ccccc32)c1 (stereo not drawn)
  1, 5
- COc1ccc(S(=O)(=O)N(C)c2ccc(C)cc2C)cc1C(=O)O
  -4, -3
- CCC(O)c1nc2ccccc2n1CCCOc1cccc(OC)c1 (stereo not drawn)
  9, 5
- CS(=O)(=O)Nc1nc(-c2ccccn2)nc2scc(-c3ccccc3)c12
  -2, 0
- O=C1CC(C(=O)N2Cc3cnn(CCO)c3C2)c2ccccc21 (stereo not drawn)
  5, 6
- COc1ccc(C(=O)NCC2Cc3cc(-c4ccccc4C(C)=O)ccc3O2)c(OC)c1OC (stereo not drawn)
  2, 4
- N#Cc1ccc(CON=C2C3CC4CC(C3)CC2C4)cc1
  14, 21
- Cc1nn(C)c(Cl)c1S(=O)(=O)N1CCCC(N2CCCC2=O)C1 (stereo not drawn)
  3, 7
- CC(C)Oc1ccc(NC(=O)Cc2cccs2)cc1Cl
  -2, -1
- CC(N)=C1C(=O)OC(C)(C)OC1=O
  6, 12

Structures shown so far with a CF3 group:
Sequence of screens: NPYLR7 ag max-min, NPYLR7 ag
- O=C(Cn1cc(C(F)(F)F)ccc1=O)c1ccc2c(c1)CCO2
  2, 6
- Cc1ncc(-c2ccc(OC(F)(F)F)cc2)[nH]1
  2, 1
- O=C(NCCN1CCOCC1)c1cc2n(n1)CCN(Cc1cccc(C(F)(F)F)c1)C2=O
  27, 9
- O=C(c1ccc(CSc2ccc(Cl)cc2)cc1)N1C2CCC1CC(Oc1cccc(C(F)(F)F)c1)C2 (stereo not drawn)
  3, 10
- O=S(=O)(c1ccc(Br)s1)N1CCCC(C(F)(F)F)C1 (stereo not drawn)
  4, 0

(list continues)
Sequence of screens: NPYLR7 ag max-min, NPYLR7 ag
- COC(=O)CCCc1csc(N)n1
  52, 1
- Cc1cc(C)c2c(c1)c(C)cc1n[nH]c(=S)n12
  -9, -4
- CS(=O)(=O)N1CCc2cc(C(=O)NCc3ccccc3Cl)ccc21
  2, 3
- CCn1c(N2CCOCC2)n[nH]c1=S
  -2, 1
- CC(C)(C)c1nnc(NC(=O)NCCN2CCCCC2=O)s1
  -5, -2
- c1csc(-c2nnn(CN3CCC(c4nc5ccccc5s4)CC3)n2)c1
  9, 4
- CNS(=O)(=O)c1ccc(N2CCCC(c3noc(C)n3)C2)nc1 (stereo not drawn)
  1, 1
- C=C(CC)C(=O)c1ccc(OCC(=O)O)c(Cl)c1Cl
  -13&-17&-2, -6&-12&-1
- CC1(C(=O)O)CC(=O)N=C2C=CC(Cl)=CN21 (stereo not drawn)
  -1, 1
- Cc1nc2n(n1)C(=O)C(C(c1ccccc1Cl)N1CCN(CCO)CC1)S2 (stereo not drawn)
  6, 8
- O=C(NCc1ccccc1)C(C1CCCC1)N1CCN(C(=O)c2ccco2)CC1 (stereo not drawn)
  1, -5
- C=CCOC(=O)C1=C(C)NC(=O)NC1c1cc(OC)ccc1OC (stereo not drawn)
  -8, -5
- COc1ccc(CCN2CCCC(CN(C)CC=C(C)C)C2)cc1 (stereo not drawn)
  0, 2
- Cn1cc(S(=O)(=O)NC(=O)Cc2csc(C(C)(C)C)n2)cn1
  3, 7

High-throughput results deposited in PubChem by Fisher Drug Discovery Resource Center.

A portion of the library, so the mix of outcomes need not match the whole.
